Screens as filed in PubChem BioAssay.
WNV protease inh – WNV NS2B-NS3 proteinase inhibition; P06935; z-score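 (tested at a level between 10 and 100 µM)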; WNV NS2B-NS3 protease, fluorogenic substrate Ex360/Em465; active compounds read low; 0.18% of 65,000 active;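 active = z-score at -3 or under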;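 also: score is relative to mean and spread of the compound wells of a plate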
Target sequence (P06935 1371-1501 limits assumed): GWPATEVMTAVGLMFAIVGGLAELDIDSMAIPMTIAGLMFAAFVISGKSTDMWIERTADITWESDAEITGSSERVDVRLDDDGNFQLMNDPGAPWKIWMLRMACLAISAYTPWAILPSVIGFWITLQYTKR
Target sequence (P06935 1502-1679 limits assumed): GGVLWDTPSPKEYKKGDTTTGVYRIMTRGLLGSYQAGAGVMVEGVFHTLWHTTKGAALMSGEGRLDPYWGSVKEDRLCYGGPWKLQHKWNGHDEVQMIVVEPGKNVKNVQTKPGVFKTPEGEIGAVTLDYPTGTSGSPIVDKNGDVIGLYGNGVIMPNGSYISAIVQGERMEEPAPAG
Hsc70 ATP site – Hsc70 inhibitors, probe displacement, primary screen, biochemical, fluorescence polarization (AID 568); one-dose displacement, % at 20 µM; IC50 in µM for titrated hits; 83,000 tested, under 10 active; Hsc70 fluorescence polarization, probe displacement; higher % means a stronger effect; strong numbers were not always called active;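 active = displacement above 50% without optical interference and an IC50 on retest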;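 also: ATPase domain with a fluorescein-tagged ATP probe; 0% = vehicle and 100% = excess ADP; read after one hour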
MT1-MMP promoter – MT1-MMP gene expression reporter suppression – cell-based, luciferase reporter, luminescence (AID 618); MT1-MMP promoter luciferase reporter cells, luminescence; calls from a first round at 10 µM; hits with a dose series show EC50 in µM; 0.62% of 87,000 active;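 active = over half of the reporter light lost at 10 µM or EC50 under 50 µM; inactive = the rest and hits that failed the dose series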;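 also: actives suppress MT1-MMP promoter-driven transcription so potencies describe inhibitors; HT1080 fibrosarcoma cells; overnight exposure; toxic or luciferase-blocking compounds were not removed from the actives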
* hit, by the source's call; i = inactive; x = no result given. Only part of the results is shown (hit frequency here may not be typical).

Start of the listing, in advance (2 entries):
[1] Cc1ccc2cccc(OC(=O)N(C)c3ccccc3)c2n1
[2] CC(=O)c1c(C)n(C(C)C)c2ccc(O)cc12

compound no.	1	2
WNV protease inh	-0.47	x
Hsc70 ATP site	2.5%	-2.2%
MT1-MMP promoter	i	i

The whole of this part, from the first entry:
[1] Cc1ccc2cccc(OC(=O)N(C)c3ccccc3)c2n1
[2] CC(=O)c1c(C)n(C(C)C)c2ccc(O)cc12
[3] CCOC(=O)C1CCN(/C=C2/C(=O)NC(=O)N(c3ccc(OCC)cc3)C2=O)CC1
[4] O=P(OCC(F)(F)C(F)F)(N1CCCCC1)N1CCCCC1
[5] O=S1(=O)CC2(N3CCOCC3)CCCCC21 (stereo not given)
[6] C#CCNc1ccncc1S(=O)(=O)NC(=O)NC(C)C
[7] CCCOC(=O)c1c(N)n(Cc2cccs2)c2nc3ccccc3nc12
[8] COc1cc(CN2CC3CC(C2)c2cccc(=O)n2C3)cc(OC)c1OC (stereo not given)

compound no.	1	2	3	4	5	6	7	8
WNV protease inh	-0.47	x	-0.5	-1.2	0.21	x	x	-0.58
Hsc70 ATP site	2.5%	-2.2%	-3.7%	4.2%	-4.4%	-0.4%	-1.7%	2.2%
MT1-MMP promoter	i	i	i	i	i	i	i	i

[9] C=CCN1C(=O)NC(=O)/C(=C/c2ccc(OC)c(CSc3ccccn3)c2)C1=O
[10] CCC1(CC)C(=O)NC(=Nc2cccc(C(F)(F)F)c2)NC1=O
[11] COc1ccc(C2SCC(=O)Nc3c2c(=O)[nH]n3C2CCCCC2)cc1 (stereo not given)
[12] CN(C)CCc1nn[nH]n1
[13] Nc1ccc(N2CCN(Cc3ccccc3Cl)CC2)c(Cl)c1
[14] CC(C)NS(=O)(=O)c1ccc(OCC(=O)N2CCN(Cc3ccc4c(c3)OCO4)CC2)c(Cl)c1
[15] COc1ncccc1C(=O)NCC(CC(=O)O)c1ccccc1 (stereo not given)
[16] CN1CCN(Cc2nc3ccccc3n2C)CC1

compound no.	9	10	11	12	13	14	15	16
WNV protease inh	x	1.3	-0.6	0.74	1.8	x	-1.1	0.25
Hsc70 ATP site	-0.3%	3.1%	9.8%	-3.5%	-0.8%	2.4%	2.0%	-9.4%
MT1-MMP promoter	i	i	i	i	i	i	i	i

[17] CCN1C(=O)c2ccccc2Sc2ccc(C(=O)N3CCC4(CC3)OCCO4)cc21
[18] COc1ccc(-n2c(O)c(C(C)=NCCN3CCNCC3)c(=O)[nH]c2=O)cc1
[19] N[C@@H](Cc1c[nH]c2ccccc12)c1nnc(SCc2ccc(F)cc2)o1
[20] CN(C)P1(N(C)C)=NC(C(F)(F)F)=NC(C(F)(F)F)=N1
[21] COc1ccc(S(=O)(=O)NCc2ccc(C(=O)N3CCC4(CC3)OCCO4)cc2)cc1
[22] N=c1n(CCO)c2ccccc2n1Cc1ccccc1
[23] CCN(CC)c1ccc(N=Cc2c(O)n(-c3ccc(OC)cc3)c(=O)[nH]c2=O)cc1
[24] CC(c1ccc(F)cc1)n1cc(C(=O)NCc2ccc3c(c2)OCO3)nn1 (stereo not given)

compound no.	17	18	19	20	21	22	23	24
WNV protease inh	-0.75	-0.05	0.26	-0.23	0.16	-0.54	x	-0.37
Hsc70 ATP site	-6.8%	-1.7%	-0.9%	1.4%	-4.7%	-3.2%	0.7%	-6.4%
MT1-MMP promoter	i	i	i	i	i	i	i	i

[25] CCOC(=O)C1C2c3ccccc3O[C@@]1(C)N=C1SCC(=O)N12 (stereo not given in full)
[26] O=c1c2ccccc2nc(-c2ccco2)n1-c1nccs1
[27] N#Cc1c(/N=C/c2c(O)n(Cc3ccco3)c(=O)[nH]c2=O)sc2c1CCCC2
[28] N#Cc1ccccc1Cn1cc(C(=O)c2cccs2)c2ccccc21
[29] CC(=NC1CCN(Cc2ccccc2)CC1)c1c(O)n(C)c(=O)n(C)c1=O
[30] COc1ccc(Cn2c(N)c(C(=O)NCc3ccco3)c3nc4ccccc4nc32)cc1OC
[31] CCN(CC)CCN=Cc1c(O)n(CCc2ccccc2)c(=O)[nH]c1=O
[32] O=C(CN1CCOCC1)Nc1ccc(Br)cc1C(=O)c1ccccc1

compound no.	25	26	27	28	29	30	31	32
WNV protease inh	-1.2	-0.89	-0.4	1.1	-0.56	-0.07	-1	x
Hsc70 ATP site	-2.8%	-3.3%	2.8%	4.4%	-2.0%	-11%	1.0%	0.1%
MT1-MMP promoter	i	i	i	i	i	i	i	i

[33] CN1CC=C(c2c[nH]c3ccccc23)CC1
[34] Cn1c(=O)cc(OCC(=O)N2CCC3(CC2)OCCO3)c2ccccc21
[35] CCOC(=O)c1c(N)n(Cc2ccc(OC)cc2)c2nc3ccccc3nc12
[36] Cc1c(N=Cc2c(O)n(Cc3ccc(F)cc3)c(=O)[nH]c2=O)c(=O)n(-c2ccccc2)n1C
[37] C/C(Cl)=C/CC1(CN2CCCC2=O)C(=O)NC(=O)NC1=O
[38] C=C1N2CCC(CC2)C1(O)c1ccc(C)cc1 (stereo not given)
[39] C=C1C(O)(c2ccccc2)C2CC[N+]1(C)CC2 (stereo not given)
[40] O=P(C(Cl)Cl)(N1CCCCC1)N1CCCCC1

compound no.	33	34	35	36	37	38	39	40
WNV protease inh	1.8	-0.19	-0.76	x	-1.2	x	x	x
Hsc70 ATP site	-0.9%	-5.3%	-3.9%	0.6%	-1.0%	4.1%	3.5%	2.2%
MT1-MMP promoter	i	i	i	i	i	i	i	i

[41] O=C(CNC1CCCCC1)N1CCC2(CC1)OCCO2
[42] C1CNC2NCCNC2N1 (stereo not given)
[43] O=C1C2CCCN2C(c2ccc(Cl)cc2)N1c1ccccn1 (stereo not given)
[44] O=C(COc1ccccc1)N1CCN(CC(O)COc2ccccc2)CC1 (stereo not given)
[45] C=CCOC(=O)C1=C(C)OC(N)=C(C#N)[C@@]12C(=O)N(CC(N)=O)c1ccccc12
[46] O=c1[nH]c(=O)n(-c2cccc3ccccc23)c(O)c1C=NCCCn1ccnc1
[47] CCC(=NCCO)c1c(O)n(C2CCCCC2)c(=O)[nH]c1=O
[48] Cc1ccc2c(c1)N(CCC(=O)N1CCC3(CC1)OCCO3)C(=O)C(C)O2 (stereo not given)

compound no.	41	42	43	44	45	46	47	48
WNV protease inh	x	0.33	0.74	-0.29	-0.56	-1.1	0.53	-0.67
Hsc70 ATP site	-0.8%	-4.2%	-2.2%	-1.6%	-12%	1.3%	-8.2%	0.9%
MT1-MMP promoter	i	i	i	i	i	i	i	i

Sorted by length of the SMILES (smallest number first): five of the compounds above.
[42] C1CNC2NCCNC2N1 (stereo not given)
[41] O=C(CNC1CCCCC1)N1CCC2(CC1)OCCO2
[43] O=C1C2CCCN2C(c2ccc(Cl)cc2)N1c1ccccn1 (stereo not given)
[44] O=C(COc1ccccc1)N1CCN(CC(O)COc2ccccc2)CC1 (stereo not given)
[48] Cc1ccc2c(c1)N(CCC(=O)N1CCC3(CC1)OCCO3)C(=O)C(C)O2 (stereo not given)

compound no.	42	41	43	44	48
WNV protease inh	0.33	x	0.74	-0.29	-0.67
Hsc70 ATP site	-4.2%	-0.8%	-2.2%	-1.6%	0.9%
MT1-MMP promoter	i	i	i	i	i

More records:
[49] CCC(=NCc1ccc(F)cc1)c1c(O)n(C)c(=O)n(C)c1=O
[50] CC(C)CCOC(=O)c1c(N)n(CC2CCCO2)c2nc3ccccc3nc12 (stereo not given)
[51] CCCc1[nH]nc2c1C1(C(=O)N(CC(N)=O)c3ccccc31)C(C(=O)OC)=C(N)O2 (stereo not given)
[52] COc1ccc(CCC(=O)N2CCC3(CC2)OCCO3)cc1
[53] COc1ccc(CCC(C)NCCc2ccccc2)cc1 (stereo not given)
[54] O=C(O)c1c[nH]c2ccc(S(=O)(=O)N(CCCl)CCCl)cc12
[55] CCC(=NCCO)c1c(O)n(-c2ccccc2)c(=O)[nH]c1=O
[56] O=C1CN=C(c2cccs2)c2c(sc3c2CCCC3)N1

compound no.	49	50	51	52	53	54	55	56
WNV protease inh	-0.87	1	0.5	0.54	x	x	1	1.2
Hsc70 ATP site	0.8%	-5.9%	-4.4%	-0.9%	1.1%	-0.4%	4.1%	5.3%
MT1-MMP promoter	i	i	i	i	i	i	i	i

[57] CCOC(=O)C1C(=O)N(C)C2(C)CC1c1ccccc1O2 (stereo not given)
[58] Cc1onc(-c2ccccc2)c1C(=O)N1CCC2(CC1)OCCO2
[59] Cn1cccc1CN1CCN(C(=O)COc2ccccc2)CC1
[60] COC(=O)C1=C(N)Oc2c(c(=O)oc3ccccc23)[C@]12C(=O)N(C)c1ccccc12
[61] CCN(CC)P(=O)(NC(=O)C(Cl)(Cl)Cl)N(CC)CC.[Cl-].[Cl-].[Cl-].[Nd+3]
[62] CN1[C@@H]2CC[C@H]1CC(OC(=O)C1C=Nc3ccccc31)C2 (stereo not given in full)
[63] CC(C)C(=O)c1cn(Cc2ccc(C#N)cc2)c2ccccc12
[64] Cc1c(C(=O)N2CCC3(CC2)OCCO3)sc2ncnc(N(C)c3ccccc3)c12

compound no.	57	58	59	60	61	62	63	64
WNV protease inh	-1.4	-0.36	-0.79	0.53	x	-1.4	x	-2.6
Hsc70 ATP site	2.9%	4.2%	-0.4%	2.8%	-3.2%	4.9%	-1.7%	1.7%
MT1-MMP promoter	i	i	i	i	i	i	i	i

[65] CCC(=O)N1CCN(CCN=Cc2c(O)n(C)c(=O)n(C)c2=O)CC1
[66] COc1ccc(CN2CCCCC2c2cccnc2)cc1C (stereo not given)
[67] Cc1nnc2n1-c1ccc(Br)cc1C(c1ccccc1Cl)=NC2
[68] O=P(O)(O)Cc1ccccc1OP(=O)(c1ccccc1)c1ccccc1
[69] CCSc1cc(C2C(C#N)=C(N)Oc3n[nH]c(C)c32)c(C)o1 (stereo not given)
[70] CN1C2C=C(N(C(=O)c3ccc(Cl)cc3)c3ccccc3)CC1CC2 (stereo not given)
[71] CCCCNC(=O)Nc1ccc(C(O)(C(=O)OC)C(F)(F)F)cc1 (stereo not given)
[72] COc1ccc(OC)c(N2C(=O)NC(=O)C(CCc3ccncc3)(CCc3ccncc3)C2=O)c1

compound no.	65	66	67	68	69	70	71	72
WNV protease inh	-0.18	0.02	0.8	0.09	-0.22	0.08	-0.61	0.68
Hsc70 ATP site	-3.4%	-5.4%	1.9%	4.3%	-6.4%	-1.6%	-2.6%	7.9%
MT1-MMP promoter	i	i	i	i	i	i	i	i

[73] CN1CCCC(C(=O)c2ccccc2)C1 (stereo not given)
[74] CCCCOC(=O)C1=C(N)OC2=C(C(=O)CCC2)[C@]12C(=O)Nc1ccccc12
[75] CC(C)CNC(=O)c1c(N)n(Cc2ccco2)c2nc3ccccc3nc12
[76] O=C(Nc1ccc(Cl)cc1)Nc1nccs1
[77] COc1ccc(C2SCC(=O)Nc3c2c(=O)[nH]n3C2CCCCCC2)cc1OC (stereo not given)
[78] CCOc1cccc(N2C(=O)CC(=O)NC2=O)c1
[79] CCN(CC)CCN=Cc1c(O)n(Cc2ccccc2)c(=O)[nH]c1=O
[80] Nc1ccc(C(=O)N/N=C2/CN3CCC2CC3)cc1

compound no.	73	74	75	76	77	78	79	80
WNV protease inh	x	-1.2	x	x	-0.11	0.37	x	x
Hsc70 ATP site	1.7%	-4.8%	1.5%	-1.1%	1.1%	2.0%	-12%	0.3%
MT1-MMP promoter	i	i	i	i	i	i	i	i

[81] COc1ccc(CN2CCN(Cc3ccccc3)CC2)c(OC)c1
[82] Cn1c(O)c(C=NC2CC(C)(C)NC(C)(C)C2)c(=O)n(C)c1=O
[83] C=CCn1c(O)c(C(C)=Nc2cc(OC)ccc2OC)c(=O)[nH]c1=O
[84] CC(=NCc1cccnc1)c1c(O)n(C2CCCCC2)c(=O)[nH]c1=O
[85] COc1ccc(CCN(C)Cc2ccc(F)cc2F)cc1OC
[86] CCN1CCN(Cc2ccc(C)cc2)CC1
[87] CN(C)C(=O)Oc1ccc(-c2nnco2)cc1
[88] C=CCN(CC=C)Cc1c[nH]c2ccccc12
[89] O=C1NC(=O)C(Cc2cccs2)C(=O)N1
[90] CCS(=O)(=O)N1CCCC(C(=O)N2CCC3(CC2)OCCO3)C1 (stereo not given)

compound no.	81	82	83	84	85	86	87	88	89	90
WNV protease inh	-2	-0.008	-0.13	0.34	x	-0.19	-1.5	1	-0.22	-0.01
Hsc70 ATP site	-3.4%	1.2%	-1.2%	0.3%	2.6%	6.2%	7.3%	-4.7%	-2.2%	-3.5%
MT1-MMP promoter	i	i	i	i	i	i	i	i	i	i
